Source: PubChem BioAssay (Broad Institute)
Vaccinia inh: Vaccinia orthopox stage-specific inhibition. 0.01% of 89,000 active. AID 1053133. Vaccinia-infected cells, mCherry/Venus stage reporter fluorescence; stronger effect = lower value; some inactives read as strong as hits. activity change (mCherry), % (no concentration beside the values);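 active = mCherry past -33% and 40 or more points under the early reporter, replicates agreeing; inconclusive = past -33% without that gap or agreement; tested in A549 cells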;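 note: scaled between vehicle wells and reference inhibitor wells; 23 nL library stock went into each well; one replicate is shown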
Vaccinia inh Venus: also measured in Vaccinia inh; calls as there; activity change (Venus), %; measured here: Venus reporter, other viral stage;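 negative = less Venus signal; first of two replicates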
The depositor's hits bear a star; ? = inconclusive; / = not tested or not shown.

Under each structure – Vaccinia inh, Vaccinia inh Venus
Cc1ccc(S(=O)(=O)N(C)C[C@@H]2Oc3c(NC(=O)c4nc5ccccc5s4)cccc3C(=O)N([C@@H](C)CO)C[C@H]2C)cc1
  2, -1
C[C@@H]1CCCCO[C@@H](CN(C)Cc2ccncc2)[C@H](C)CN([C@H](C)CO)C(=O)c2cc(NS(=O)(=O)c3ccc(F)cc3)ccc2O1
  -14, -20
COc1ccc(S(=O)(=O)N[C@@H]2CC[C@H](CCNC(=O)Cc3ccccn3)O[C@H]2CO)cc1
  4, 0
CC=Cc1ccc2n(c1=O)C[C@H]1[C@H](CO)[C@@H](C(=O)NCCC)N(C(=O)CC3CC3)[C@@H]21 (mixture of isomers)
  1, 2
C[C@H](CO)N1C[C@H](C)[C@H](CN(C)Cc2ccncc2)OCCCC[C@H](C)Oc2ccc(NC(=O)NC3CCCCC3)cc2C1=O
  -12, -14
COC(=O)C[C@@H]1CC[C@H](NS(=O)(=O)c2ccccc2F)[C@@H](CO)O1
  14, 10
O=C(C[C@H]1C[C@@H]2c3cc(NC(=O)Nc4ccccc4F)ccc3O[C@@H]2[C@@H](CO)O1)NCc1ccc(Oc2ccccc2)cc1
  ?, /
O=C(Nc1cccc(Cl)c1)N[C@@H]1CC[C@@H](CCNC(=O)C2CCCC2)O[C@@H]1CO
  -1, 13
COc1ccc(S(=O)(=O)Nc2ccc3c(c2)CC(=O)N([C@H](C)CO)C[C@@H](C)[C@@H](CN(C)S(=O)(=O)c2ccc(C)cc2)O3)cc1
  -12, -9
COC(=O)[C@@H]1[C@@H](CO)[C@@H]2Cn3c(ccc(-c4cccc(F)c4)c3=O)[C@H]1N2Cc1ccncc1
  -7, 0
C[C@@H]1CN([C@@H](C)CO)C(=O)c2cccc(NC(=O)C3CC3)c2O[C@@H]1CN(C)Cc1ccncc1
  4, -11
CC(C)NC(=O)Nc1ccc2c(c1)CC(=O)N([C@H](C)CO)C[C@H](C)[C@@H](CN(C)Cc1ccc(Cl)c(Cl)c1)O2
  ?, /
N#Cc1cccc(-c2ccc([C@@H]3[C@H](CO)N4CCCCN(C(=O)Cc5cccnc5)C[C@@H]34)cc2)c1
  6, -7
C[C@H](CO)N1C[C@H](C)[C@H](CN(C)C(=O)NC2CCCC2)Oc2ncc(/C=C/c3ccccc3)cc2C1=O
  6, 10
C[C@H](CO)N1C[C@H](C)[C@@H](CN(C)Cc2ccc(Oc3ccccc3)cc2)Oc2ccc(NS(=O)(=O)c3cccs3)cc2CC1=O
  ?, /
C[C@@H]1CCCCO[C@@H](CN(C)Cc2ccc(C(=O)O)cc2)[C@H](C)CN([C@@H](C)CO)C(=O)c2cc(NC(=O)CCCN(C)C)ccc2O1
  -3, -6
CO[C@H]1CN(C)C(=O)c2ccc(NS(C)(=O)=O)cc2OC[C@@H](C)N(CC2CC2)C[C@H]1C
  11, 5
O=C(C[C@@H]1CC[C@@H]2[C@H](COC[C@@H](O)CN2CC2CCCC2)O1)NCC1CC1
  9, 11
O=C(C[C@H]1C[C@@H]2c3cc(NC(=O)NC4CCCC4)ccc3O[C@@H]2[C@@H](CO)O1)NCc1ccc(-c2ccccc2)cc1
  6, 2
COc1ccc2c3c([nH]c2c1)[C@@H](CO)N(Cc1nccs1)CC31CN(Cc2cccnc2)C1
  19, 25

Fetched one by one from the list above:
Under each structure – Vaccinia inh, Vaccinia inh Venus
C[C@@H]1CCCCO[C@@H](CN(C)Cc2ccc(C(=O)O)cc2)[C@H](C)CN([C@@H](C)CO)C(=O)c2cc(NC(=O)CCCN(C)C)ccc2O1
  -3, -6
CC(C)NC(=O)Nc1ccc2c(c1)CC(=O)N([C@H](C)CO)C[C@H](C)[C@@H](CN(C)Cc1ccc(Cl)c(Cl)c1)O2
  ?, /

(further entries)
Under each structure – Vaccinia inh, Vaccinia inh Venus
Cc1ccc(S(=O)(=O)N(C)C[C@@H]2Oc3c(NS(=O)(=O)c4cccs4)cccc3C(=O)N([C@H](C)CO)C[C@@H]2C)cc1
  -13, -4
Cc1ccc(S(=O)(=O)N(C)C[C@H]2Oc3c(NC(=O)C4CCOCC4)cccc3C(=O)N([C@@H](C)CO)C[C@@H]2C)cc1
  3, 3
COc1ccc(NC(=O)Nc2ccc3c(c2)C(=O)N([C@@H](C)CO)C[C@@H](C)[C@@H](CN(C)S(=O)(=O)c2ccccc2)OCCCC[C@@H](C)O3)cc1
  -9, -5
O=C(Cc1ccncc1)N1CC[C@@H]2[C@H](CO)Nc3ccc(-c4ccccc4F)cc3[C@@H]21
  ?, /
C[C@@H]1CCCCO[C@@H](CN(C)C(=O)Nc2cccc3ccccc23)[C@@H](C)CN([C@H](C)CO)C(=O)c2cc(NC(=O)c3ccccc3)ccc2O1
  10, 15
COc1cccc(CNC(=O)[C@@H]2[C@@H](CO)[C@@H]3Cn4c(cccc4=O)[C@H]2N3C(=O)C2CCC2)c1
  13, 6
O=C(NC[C@H]1N[C@H](CO)[C@@H]1c1ccc(-c2cncnc2)cc1)C1CCCC1
  4, 13
CCCC(=O)N1CCC2(CC1)CN(C(=O)C1CC1)[C@H](CO)c1[nH]c3cc(OC)ccc3c12
  12, 7
C[C@@H]1CCCCO[C@@H](CN(C)C(=O)Nc2ccc3c(c2)OCO3)[C@H](C)CN([C@H](C)CO)C(=O)c2cc(NC(=O)c3ccncc3)ccc2O1
  16, 2
COc1cccc(-c2ccc3c(c2)O[C@H](CN(C)Cc2cncnc2)[C@@H](C)CN([C@H](C)CO)S3(=O)=O)c1
  3, -2

Reformatted with bars between the fields: entries from further up.
mol | Vaccinia inh | Vaccinia inh Venus
COC(=O)C[C@@H]1CC[C@H](NS(=O)(=O)c2ccccc2F)[C@@H](CO)O1 | 14 | 10
O=C(C[C@H]1C[C@@H]2c3cc(NC(=O)Nc4ccccc4F)ccc3O[C@@H]2[C@@H](CO)O1)NCc1ccc(Oc2ccccc2)cc1 | ? | /

Remaining list, next part:
Under each structure – Vaccinia inh, Vaccinia inh Venus
N#C[C@H]1[C@@H](c2ccc(-c3cccc(F)c3)cc2)[C@H](CO)N1C(=O)c1cccnc1
  -6, -1
COc1ccc2c3c([nH]c2c1)[C@H](CO)N(C(=O)Nc1ccc(F)cc1)CC31CN(S(=O)(=O)c2cccc(C)c2)C1
  -12, -8
Cc1noc(C)c1NC(=O)N(C)C[C@H]1Oc2ccc(NC(=O)CCCN(C)C)cc2C(=O)N([C@@H](C)CO)C[C@@H]1C
  -9, -2
CC(C)NC(=O)Nc1ccc2c(c1)C(=O)N([C@@H](C)CO)C[C@H](C)[C@H](CN(C)S(=O)(=O)c1ccc(F)cc1)O2
  1, 1
CCCNC(=O)N1CC(=O)N2[C@@H](CO)[C@@H](c3ccc(C#Cc4cccc(OC)c4)cc3)[C@@H]2C1
  -23, -14
C/C=C/c1ccc([C@H]2[C@H]3CN(C(=O)c4cccc(F)c4)CC(=O)N3[C@H]2CO)cc1
  0, -11
CC(C)NC(=O)N1[C@@H]2c3ccc(-c4ccc(F)cc4)c(=O)n3C[C@@H]2[C@@H](CO)[C@@H]1C(=O)N1CCOCC1
  11, 1
O=C(NCC[C@@H]1CC[C@H](NC(=O)C2CCOCC2)[C@H](CO)O1)Nc1ccc(Cl)cc1
  7, 11
CN(C)CCCNC(=O)C[C@H]1CC[C@H](NC(=O)c2ccccc2F)[C@@H](CO)O1
  1, 9
C[C@@H]1CN([C@@H](C)CO)C(=O)c2cccc(NC(=O)NC3CCCCC3)c2O[C@H]1CN(C)Cc1ccncc1
  2, 0

Looked up above.
`Cc1noc(C)c1NC(=O)N(C)C[C@H]1Oc2ccc(NC(=O)CCCN(C)C)cc2C(=O)N([C@@H](C)CO)C[C@@H]1C` in Vaccinia inh Venus is listed with -2
`CC(C)NC(=O)N1[C@@H]2c3ccc(-c4ccc(F)cc4)c(=O)n3C[C@@H]2[C@@H](CO)[C@@H]1C(=O)N1CCOCC1` in Vaccinia inh Venus is listed with 1
`C/C=C/c1ccc([C@H]2[C@H]3CN(C(=O)c4cccc(F)c4)CC(=O)N3[C@H]2CO)cc1` in Vaccinia inh is listed with 0
`CN(C)CCCNC(=O)C[C@H]1CC[C@H](NC(=O)c2ccccc2F)[C@@H](CO)O1` in Vaccinia inh Venus is listed with 9
`C[C@@H]1CN([C@@H](C)CO)C(=O)c2cccc(NC(=O)NC3CCCCC3)c2O[C@H]1CN(C)Cc1ccncc1` in Vaccinia inh is listed with 2

Next section
Under each structure – Vaccinia inh, Vaccinia inh Venus
COc1ccc(S(=O)(=O)N[C@@H]2C=C[C@H](CC(=O)N3CCN(c4ccccc4)CC3)O[C@@H]2CO)cc1
  -5, 9
CCCNC(=O)[C@@H]1[C@@H](CO)[C@@H]2Cn3c(ccc(-c4ccccc4F)c3=O)[C@H]1N2C(C)=O
  22, 8
C[C@@H]1CCCCO[C@@H](CN(C)C(=O)CCC(F)(F)F)[C@@H](C)CN([C@H](C)CO)C(=O)c2cc(NC(=O)CCC(F)(F)F)ccc2O1
  8, 7
O=C(Nc1cccc(F)c1)N1CC(=O)N2[C@H](CO)[C@H](c3ccc(-c4ccccc4F)cc3)[C@@H]2C1
  ?, /
CC(C)NC(=O)N1C[C@H]2[C@@H](c3ccccc31)[C@@H](CO)N2C(=O)Nc1ccccc1
  -1, -5
O=C(NCc1nc2ccccc2[nH]1)C1=C[C@@H](c2ccc(Br)cc2)C[C@@H](OCCCCO)O1
  0, 5
O=C(C[C@H]1CC[C@@H](NC(=O)CC2CC2)[C@@H](CO)O1)NCC(F)(F)F
  6, -3
CN(C)CC(=O)N[C@@H]1CC[C@H](CCn2cc(C3CCCCC3)nn2)O[C@@H]1CO
  0, 8
COc1ccc(NC(=O)N(C)C[C@H]2OCCCC[C@H](C)Oc3ccc(NC(=O)Nc4ccc5c(c4)OCO5)cc3C(=O)N([C@H](C)CO)C[C@@H]2C)cc1
  13, 4
C[C@@H]1CN([C@H](C)CO)S(=O)(=O)c2ccc(-c3ccccc3)cc2O[C@H]1CN(C)Cc1ccccn1
  ?, /
C[C@@H]1CN([C@@H](C)CO)C(=O)c2cc(-c3ccccc3F)cnc2O[C@@H]1CN(C)C(=O)c1cnccn1
  16, 6
CC(C)NC(=O)Nc1ccc2c(c1)C(=O)N([C@H](C)CO)C[C@H](C)[C@@H](CN(C)C)OCCCC[C@H](C)O2
  30, 9
CO[C@H]1CC[C@H]2CCN(C)C(=O)[C@H](C)CN(C)C(=O)c3cccc(C#N)c3OC[C@H]1O2
  13, 4
COc1ccc2c3c(n(C)c2c1)[C@@H](CO)N(C(C)=O)CC31CN(Cc2ccccc2OC)C1
  -3, -6
O=C1CN(S(=O)(=O)c2ccccc2)C[C@H]2[C@H](c3ccc(C#CCc4ccccc4)cc3)[C@@H](CO)N12
  19, 6
[N-]=[N+]=NCc1ccccc1C[C@]1(C(=O)N2CCOCC2)COC(c2ccc(OCCCO)cc2)=N1
  7, 26
O=C(C1CCC1)N1CC(=O)N2[C@H](C1)[C@@H](c1ccc(-c3cccnc3)cc1)[C@@H]2CO
  -8, -11
COCC(=O)N1C[C@@H](C)[C@H](OC)CN(C)C(=O)c2ccc(NC(=O)c3ccc(-c4ccccc4)cc3)cc2OC[C@H]1C
  -31, -21
Cc1cccc(-c2ccc([C@H]3[C@@H](CO)N4CCCCN(Cc5ccncc5)C[C@@H]34)cc2)c1
  -1, -5
Cc1ccc(-c2ccc3c(c2)O[C@H](CN(C)C(=O)Nc2ccccc2)[C@@H](C)CN([C@@H](C)CO)S3(=O)=O)cc1
  ?, /
C[C@H]1CN([C@@H](C)CO)C(=O)Cc2cc(NC(=O)Nc3ccccc3)ccc2O[C@H]1CN(C)S(=O)(=O)c1ccccc1
  -32, -23
CCCN1C[C@H](C)[C@H](OC)CN(C)C(=O)c2cc(NC(=O)c3cnccn3)ccc2OC[C@H]1C
  3, -6
C[C@@H]1CN([C@@H](C)CO)C(=O)c2cc(NC(=O)Cc3ccccc3)ccc2O[C@@H]1CN(C)Cc1ccc2c(c1)OCO2
  -27, -13
O=C1CNC[C@H]2[C@@H](c3ccc(C#Cc4cccnc4)cc3)[C@@H](CO)N12
  -4, 8
Cc1cccc(S(=O)(=O)N[C@@H]2CC[C@@H](CCNS(=O)(=O)c3ccccc3F)O[C@H]2CO)c1
  9, 14
Cc1ccc(S(=O)(=O)Nc2ccc3c(c2)C(=O)N([C@@H](C)CO)C[C@@H](C)[C@@H](CN(C)S(=O)(=O)c2ccc(F)cc2)O3)cc1
  -13, -6
C[C@H](CO)N1C[C@H](C)[C@@H](CN(C)C)OCCCC[C@H](C)Oc2ccc(N(C)C)cc2C1=O
  4, 1
O=C(C1CCCCC1)N1CC(=O)N2[C@H](CO)[C@@H](c3ccc(-c4cccnc4)cc3)[C@@H]2C1
  -3, -5
O=C(NCC[C@@H]1CC[C@@H](NC(=O)c2cccnc2)[C@@H](CO)O1)Nc1ccc(C(F)(F)F)cc1
  -14, 1
Cc1ccccc1-c1cnc2c(c1)C(=O)N([C@@H](C)CO)C[C@H](C)[C@@H](CN(C)Cc1cccnc1)O2
  -3, 4
CO[C@H]1CN(C)C(=O)c2cc(NS(=O)(=O)c3ccc(F)cc3)ccc2OC[C@H](C)NC[C@@H]1C
  -5, 10
COc1ccc(NC(=O)Nc2ccc3c(c2)CC(=O)N([C@@H](C)CO)C[C@H](C)[C@H](CN(C)C(=O)Nc2ccc4c(c2)OCO4)O3)cc1
  14, 8
C[C@@H]1CCCCO[C@H](CN(C)S(=O)(=O)c2cccs2)[C@H](C)CN([C@H](C)CO)C(=O)c2cc(NS(C)(=O)=O)ccc2O1
  -30, -17
O=C(Nc1ccc2c(c1)OCO2)N[C@H]1CC[C@@H](CC(=O)N2CCN(c3ccccc3)CC2)O[C@H]1CO
  -9, 4
C[C@@H]1CN([C@H](C)CO)C(=O)c2cc(NC(=O)C3CCCCC3)ccc2O[C@@H](C)CCCCO[C@@H]1CN(C)C(=O)C1CCCCC1
  -15, -15
O=C(c1ccc2c(c1)OCO2)N1CC(=O)N2[C@H](CO)[C@H](c3ccc(C#Cc4ccccc4)cc3)[C@H]2C1
  ?, /

A portion of the library; rates above refer to the full screens.
